MgrA-DNA mod = modulators of Staphylococcus aureus MgrA DNA binding; inhibition, %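 (about 10 µg/mL by stock and volumes)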; 84,000 tested, 0.13% active; fluorescence polarization; AID 602314;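 active = above 50% in either of two replicates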;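 also: 0% = protein plus DNA without compound and 100% = DNA alone without protein; higher means less MgrA bound to DNA so lower polarization; one replicate is shown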
S aureus helic = S. aureus DNA helicase inhibition. purified S. aureus helicase, fluorescence unwinding assay; about half of the hits fall short of the stated cut. 120,000 tested, 0.05% active. inhibition, %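 (tested at about 80 µM)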;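 active = both duplicates at 50% or more, or one of them with a favoured structure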;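 also: 0% = mean of negative control wells and 100% = mean of positive control wells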
* hit, by the source's call; · = not tested or not shown. The list is partial, so the mix of outcomes need not match the whole.

SMILES | MgrA-DNA mod | S aureus helic
CN(Cc1ccccc1)C(=O)c1ccc2c(c1)S(=O)(=O)N=C1CCCCCN12 | · | 0
COc1cccc(-n2nnc3c(=O)n(Cc4ccccc4F)cnc32)c1 | · | 5
COc1ccc(CC(=O)NC2CCN(CC(=O)Nc3ccc4c(c3)CCC4)CC2)cc1OC | -4.0 | -3
C[n+]1ccc(CCc2cc[n+](C)cc2)cc1 | -2.4 | ·
O=[N+]([O-])c1cc2c3c(c1)C1C=CCC1C(c1ccc(F)cc1)N3CC1CC=CC21 (configuration not stated) | -1.4 | ·
N#CC(C(=O)c1ccc(S(=O)(=O)N2CCCCC2)cc1)c1nc2ccccc2c(=O)[nH]1 (configuration not stated) | · | 0
CC(N)c1ccc(C(=O)O)o1 (configuration not stated) | 0.4 | -5
N#CC1=C(N)N(c2sc3c(c2C#N)CCCC3)C2=C(CCC2)C1(C(F)(F)F)C(F)(F)F | -0.5 | 9
CCSc1nc2ccccc2c(=O)n1C(C)C | · | -12
Nc1sc2c(c1C(=O)c1cccs1)CCCC2 | · | -2
C=CCN=C1NN=C(c2ccc(Cl)cc2)C(C)S1 (configuration not stated) | · | 5
CS(=O)c1ccccc1O (configuration not stated) | -0.3 | ·
Cc1ccc(C2=NS(=O)(=O)N(C)C(C(=O)N3CCC(C)CC3)=C2)cc1 | · | -20
COc1cc(OC)cc(OCC(O)Cn2ccnc2)c1 (configuration not stated) | 0.2 | -12
CSc1ncc(-c2ccc(Cl)cc2)cn1 | 0.1 | ·

One compound at a time (already shown). Order of screens: MgrA-DNA mod, S aureus helic
COc1ccc(CC(=O)NC2CCN(CC(=O)Nc3ccc4c(c3)CCC4)CC2)cc1OC in the list: -4.0, -3
CN(Cc1ccccc1)C(=O)c1ccc2c(c1)S(=O)(=O)N=C1CCCCCN12 in the list: ·, 0
CSc1ncc(-c2ccc(Cl)cc2)cn1 in the list: 0.1, ·
Cc1ccc(C2=NS(=O)(=O)N(C)C(C(=O)N3CCC(C)CC3)=C2)cc1 in the list: ·, -20
COc1cc(OC)cc(OCC(O)Cn2ccnc2)c1 (configuration not stated) in the list: 0.2, -12

The main list resumes; the 4 compounds before the break are reprinted first.
SMILES | MgrA-DNA mod | S aureus helic
CS(=O)c1ccccc1O (configuration not stated) | -0.3 | ·
Cc1ccc(C2=NS(=O)(=O)N(C)C(C(=O)N3CCC(C)CC3)=C2)cc1 | · | -20
COc1cc(OC)cc(OCC(O)Cn2ccnc2)c1 (configuration not stated) | 0.2 | -12
CSc1ncc(-c2ccc(Cl)cc2)cn1 | 0.1 | ·
CCCn1c(N2CCN(C(=O)/C=C/C(=O)O)CC2)nc2ccccc21 | -4.2 | 3
CCOC(=O)CSc1nc2c(c(=O)[nH]1)C1(CCCC1)Cc1ccccc1-2 | 0.9 | 9
N#CC1CN(Cc2cccs2)CN(Cc2cccs2)C1 | -1.2 | ·
O=C1CSCC(=O)N1c1ccc(Cl)cc1 | · | -3
O=C(CN1CCN(c2cccc(Cl)c2)CC1)NCCc1ccccc1 | 6.4 | 10
CCC(=O)NCC(c1cccs1)N1CCOCC1 (configuration not stated) | -1.4 | 2
Cc1ccc2cnn(CC(=O)N3CCc4ccccc4C3)c2c1 | · | 10
O=C(/C=C/c1ccc(Cl)cc1)NCCCn1ccnc1 | 1.1 | 6
O=C1CC(/C=C/c2ccco2)=Nc2ccccc2N1 | · | -3
CCOC(=O)c1cc(NC(C)=O)ccc1Oc1cncc(Cl)c1 | -1.5 | ·
O=C(NC1CC1)C1CCN(C(=O)NCc2ccccc2)CC1 | 0.7 | 18
Cc1ccc(-c2nnc(SCN3C(=O)c4ccccc4C3=O)o2)cc1C | · | -1
CC1=Nn2c(Cn3nnc4ccccc43)nnc2SC1 | -1.6 | ·
COC(=O)c1ccc(NC(=O)COC(=O)C2CCN(S(=O)(=O)c3cccs3)CC2)cc1 | · | -21
C=C1SC(Nc2ccc(C)cc2C)=NC1(C)C | -0.6 | ·
CC(C)OCc1cc(CN2CCN(C)CC2)c(O)c2ncccc12 | · | 11
O=C(CCCc1ccccc1)NC1CC1 | -2.9 | 9
Cc1cc(C(=O)NC2CC2)n(-c2ccccc2)n1 | · | 11
CC(C)N(Cc1nc(-c2ccccc2)no1)C(=O)CCN1C(=O)c2ccccc2C1=O | · | 17
COc1ccc(-c2c(C)[nH]n3c(=O)c(Cc4ccccc4)c(C)nc23)cc1 | 2.5 | 22
CCCn1c(SCC(=O)NCCc2ccccc2)nc(O)cc1=O | · | -5
Cc1cc(Cl)ccc1Nc1nnc(-c2ccccc2Cl)s1 | 0.5 | ·
O=C(c1ccc(F)cc1)C1CCN(Cc2cn[nH]c2-c2ccc(F)cc2)CC1 | -0.5 | ·
N#C/C(=C\c1[nH]c2ccccc2c1O)C(N)=NCCc1ccccc1 | 5.2 | -19
Cn1c(C(=O)NCc2ccc(F)cc2)cc2c(=O)[nH]c3ccccc3c21 | · | 9
Cc1nn(-c2ccccc2)c2sc(C(=O)NCCCN3CCOCC3)cc12 | · | 13
COC(=O)CSc1nnc(-c2ccccc2)n1C | 4.6 | -2
CCOC(=O)c1cc(C)n(-c2cccc(F)c2C#N)n1 | · | -22
Cc1cc(C)nc(SCC(=O)OCC(=O)Nc2cc(C)nn2-c2ccccc2)n1 | · | 12
COc1ccc(Oc2cccc(Cl)c2CNC(=O)CCC(=O)O)cc1 | -2.1 | ·

Fetched by compound from above:
SMILES | MgrA-DNA mod | S aureus helic
COC(=O)CSc1nnc(-c2ccccc2)n1C | 4.6 | -2
Cc1cc(C)nc(SCC(=O)OCC(=O)Nc2cc(C)nn2-c2ccccc2)n1 | · | 12
COc1ccc(Oc2cccc(Cl)c2CNC(=O)CCC(=O)O)cc1 | -2.1 | ·

Later entries:
SMILES | MgrA-DNA mod | S aureus helic
O=C1CC2CS(=O)(=O)CC2N1c1ccc(Oc2ccccc2)cc1 (configuration not stated) | -6.9 | -1
S=C1SCN(CCc2ccccc2)CN1CCc1ccccc1 | 1.7 | ·
COc1nc(Oc2nc(OC)nc(N3CCCC3)n2)nc(N2CCCC2)n1 | · | 12
Cn1ncc2nnn(-c3ccccc3)c(=O)c21 | · | -7
c1ccc(-c2ncsc2-c2ccccc2)cc1 | -2.1 | 16
Cc1cc(NC(=O)/C=C/c2ccco2)n(-c2nc3ccccc3n2Cc2ccc(Cl)c(Cl)c2)n1 | · | 5
CCC(=O)Nc1ccccc1-c1nc2ccccc2[nH]c1=O | 3.3 | -13
CCCN1C(=O)C2C(C(=O)Nc3cccc(OC)c3)C3C=CC2(O3)C1C(=O)NC1CCCCC1C (configuration not stated) | · | -11
CCOc1cc(/C=C2\N=C(c3ccccc3)OC2=O)cc(Br)c1OC(C)=O | 0.1 | ·
CCC(=S)/C=C1\Sc2ccc(OC)cc2N1CC | 0.6 | 1
Cc1ccc(C(=O)Nc2cccc(N3CCCC3)c2)cc1 | 1.4 | 9
CC(c1ccccc1)N1C(=O)CC(Nc2ccc(N(C)C)cc2)C1=O (configuration not stated) | 4.6 | -1
O=c1nc2cc3[nH]c4c(=O)c5ccccc5c4[nH]c3cc2n1 | 1.4 | -2
CN=c1scc(-c2ccc3c(c2)OCCO3)n1/N=C/c1c[nH]c2ccccc12 | · | 13
NC(=O)c1c(N)sc2c1CCC2 | 13 | ·
Cc1ccc(OCCN2C(=O)C(C)N(c3ccc(C)cc3)C2=O)cc1 (configuration not stated) | · | -9
NC(=O)CSc1nc(=O)n(Cc2cccnc2)c2c1CCC2 | · | -16
CCn1c(SCC(=O)N2CCCC2)nnc1-c1c[nH]c2ccccc12 | -1.0 | 6
CS(=O)(=O)N1CCC(c2nc3c(nnn3Cc3ccc(F)cc3)c(=O)[nH]2)CC1 | 1.2 | -16
Cc1cccc(CC2S/C(=N\c3ccccn3)NC2=O)c1 (configuration not stated) | 2.6 | ·
COC(=O)C(C)Sc1nc2ccccc2[nH]1 (configuration not stated) | -1.2 | ·
CN1C/C(=C\c2ccccc2F)C(=O)/C(=C/c2ccccc2F)C1 | -4.7 | -12
CC(C)(C)c1ccc(-c2nc(C#N)c(NCc3ccccc3)o2)cc1 | 2.2 | 7
Cc1ccc(C(=O)C2N=C(N)OC2c2ccccc2)cc1 (configuration not stated) | 11 | 13
NS(=O)(=O)c1ccc(NC(=O)COc2cccc3ccccc23)cc1 | · | -9
COC(=O)c1ccc(S(=O)(=O)N(CCO)Cc2ccccc2)n1C | · | -4
COc1ccc(NC(=O)CSCC(=O)O)c(N2CCOCC2)n1 | · | 15
COC1OC2COC(C2O)C1O (configuration not stated) | 1.4 | 6
COC(=O)c1ccc(CSc2nnc(-c3ccc4ncccc4c3)n2C)cc1 | -1.5 | ·
COc1ccccc1C(=O)COC(=O)C(C)N=C1NS(=O)(=O)c2ccccc21 (configuration not stated) | · | 1
CCN(CC)CCSc1nnc2c3ccccc3n(CC(N)=O)c2n1 | 3.1 | 7
COC(=O)c1sc2nc(SCc3ccccc3C)n(N)c(=O)c2c1C | 0.4 | 8
Cc1cc(C)c(NC(=O)CN2C(=O)CSCC2=O)c(C)c1 | · | 5
CC1CCN(Cc2ccc(N)cc2)CC1 | -1.9 | -3
CCc1c(C)c2cc3c(-c4cccc(OC)c4)coc3cc2oc1=O | · | -22
N#CCS(=O)(=O)c1ccc(Cl)cc1 | · | 7
CCOC(=O)c1cc(-c2ccn[nH]2)on1 | 0.6 | ·
CCOCC(=O)Nc1c(C(=O)Nc2ccc(OCC)cc2)oc2ccccc12 | · | 13
CSc1cccc(NC(=S)/N=C/N(C)C)c1 | -1.6 | ·
COc1ccccc1C(=O)N1CCN(Cc2c[nH]c3ccccc23)CC1 | · | 7
Cn1cccc1Cc1nnc(SCC(=O)NCc2ccccc2)n1C | · | 5
C/C(N)=C(/C#N)C(NC(=O)C1CCCCC1)(C(F)(F)F)C(F)(F)F | 0.1 | 13
O=C(O)C1CCC(=O)N1C(=O)/C=C/c1ccccc1 (configuration not stated) | -3.4 | 7
CSC1=NC2(CCCCC2)C2=C(CCCC2)N1 | · | -11
CCOc1cc2c(c([N+](=O)[O-])c1)NC(c1cccc(Cl)c1Cl)C1CC=CC21 (configuration not stated) | -1.3 | ·
O=C(Cn1cnc2ccccc2c1=O)N1CCc2ccccc21 | · | 0
O=C1NC(=Nc2cccnc2)S/C1=C/c1ccc(O)cc1 | · | -25
CC(C)OC(=O)Oc1ccc2oc(=O)sc2c1 | 2.1 | 9
COc1cccc(NC(=O)CSc2cn(CC(=O)N3CCOCC3)c3ccccc23)c1 | · | -24
Cc1cn2ccccc2c1P(=Nc1ccccc1)(N1CCOCC1)N1CCOCC1 | · | 7
C/C(=N\NC(=O)CCc1ccccc1)c1cccc(N)c1 | 1.8 | -3
N#CC1=C(N=Cc2cc(Cl)cc(Cl)c2O)CCC1 | · | -8
CS(=O)(=O)N1CCN(c2cccc(Cl)c2)CC1 | -0.3 | 11
O=C(NC1CC1)c1ccc2ccccc2n1 | · | -20
O=C(Cn1ncc2c1-c1ccccc1OC2)NCc1cccs1 | 4.7 | 15
CN1C(=O)c2ccccc2C(C(=O)Nc2ccc(F)c(Cl)c2)C1c1c[nH]c2ccccc12 (configuration not stated) | -0.9 | 9
O=C1N(c2ccccc2)C(c2ccco2)C1(F)F (configuration not stated) | 1.9 | 1
COC(=O)c1csc(S(=O)(=O)NCc2nn(-c3ccccc3)nc2C)c1OC | · | 22
O=C(CSc1ccccc1C(=O)NCCCN1CCCC1=O)NCc1ccco1 | · | 10

Another view of part of the listing above.
> Nc1sc2c(c1C(=O)c1cccs1)CCCC2
  MgrA-DNA mod = ·
  S aureus helic = -2

> C=CCN=C1NN=C(c2ccc(Cl)cc2)C(C)S1 (configuration not stated)
  MgrA-DNA mod = ·
  S aureus helic = 5

> CS(=O)c1ccccc1O (configuration not stated)
  MgrA-DNA mod = -0.3
  S aureus helic = ·

> Cc1ccc(C2=NS(=O)(=O)N(C)C(C(=O)N3CCC(C)CC3)=C2)cc1
  MgrA-DNA mod = ·
  S aureus helic = -20

Compound activity (PubChem)
